Compound activity: PubChem, GNF / Scripps  Winzeler lab
liver stage = Plasmodium liver-stage growth inhibition, dose response, imaging, Malaria Box, P. yoelii, HepG2-A16-CD81EGFP (AID 602156) | P. yoelii liver stage in HepG2-A16-CD81EGFP, imaging; first-round cut-off not given here | 5,700 tested, 4.8% active | calls after a first round at 10 µM; hits with a dose series show IC50 in µM; in the data active = a potency from the dose series;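 also: infected cells exposed to compound for 48 hours before fixation; stained parasite area by imaging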
Calls only; i = inactive. These rows are one share of the data; the hit share may differ from the screen's.

canonical_smiles | liver stage
CC1=CC[C@@H](/C(C)=C/c2csc(C)n2)OC(=O)C[C@H](O)C(C)(C)C(=O)[C@H](C)[C@@H](O)[C@@H](C)CCC1 | i
CC[C@@]1(O)C[C@H](O[C@@H]2CC(N(C)C)[C@@H](O[C@@H]3C[C@@H](O)[C@@H](O[C@@H]4CCC(=O)[C@@H](C)O4)C(C)O3)[C@@H](C)O2)c2c(cc3c(c2O)C(=O)c2c(O)ccc(O)c2C3=O)[C@H]1C(=O)OC (stereo partly specified) | i
CCC1CN2CCC1CC2C(O)c1ccnc2ccccc12 (stereo unspecified) | i
CCOC(=O)c1c(C)n(Cc2ccccc2)c2c1cc(O)c1c2c(-c2ccccc2)nn1-c1ccccc1 | i
C=C[C@H]1CN2CC[C@H]1C[C@@H]2[C@@H](O)c1ccnc2ccccc12 | i
CC1(C)CN=C(NCc2ccccc2Cl)S1 | i
CCC1CC2CCC(O2)C(C)C(=O)OC(C)CC2CCC(O2)C(C)C(=O)OC(CC)CC2CCC(O2)C(C)C(=O)OC(C)CC2CCC(O2)C(C)C(=O)O1 (stereo unspecified) | i
O=C1Nc2ccccc2Sc2ccccc21 | i
CC[C@H]1CN2CCc3cc(OC)c(OC)cc3[C@@H]2C[C@@H]1C[C@H]1NCCc2cc(O)c(OC)cc21 | i
CCOc1c(Cl)cc(CNC(C)C(O)c2ccccc2)cc1OC (stereo unspecified) | i
C=C[C@H]1CN2CC[C@H]1C[C@H]2[C@H](OC(=O)c1ccc(F)cc1)c1ccnc2ccccc12 | i
NC(=O)CN1CC(O)CC1=O (stereo unspecified) | i
CCOc1ccc2nccc([C@@H](O)[C@@H]3C[C@@H]4CCN3C[C@@H]4CC)c2c1 | i
CC(C)NC(=O)c1cn(Cc2ccccc2)cc(C(=O)NCCc2nc3ccccc3[nH]2)c1=O | i
NC(=N[N+](=O)[O-])Nc1ccc(NC(=O)Nc2ccc(Cl)cc2)cc1 | i
C/C=C/[C@H]1O[C@@](O)([C@H](C)C(O)C(C)[C@@H]2OC(=O)C(OC)=CC(C)=C[C@H](C)[C@H](O)[C@H](CC)[C@H](O)C(C)CC(C)=CC=C[C@H]2OC)C[C@@H](O[C@@H]2C[C@H](O)[C@@H](OC(N)=O)[C@H](C)O2)[C@@H]1C (stereo partly specified) | i
CC[C@H]1CN2CC[C@H]1C[C@@H]2[C@@H](O)c1ccnc2ccc(OC)cc12 | i
CC[C@H]1CN2CC[C@@H]1C[C@@H]2[C@@H](O)c1ccnc2ccc(OC)cc12 | i
CC(Cc1ccccc1)NCCCCCNC(C)Cc1ccccc1 (stereo unspecified) | i
CCN1C(=Cc2[se]c3ccccc3[n+]2CC)Sc2ccccc21 | i

Copied from the listing, 3 compounds:
canonical_smiles | liver stage
O=C1Nc2ccccc2Sc2ccccc21 | i
CC[C@H]1CN2CCc3cc(OC)c(OC)cc3[C@@H]2C[C@@H]1C[C@H]1NCCc2cc(O)c(OC)cc21 | i
CCOc1c(Cl)cc(CNC(C)C(O)c2ccccc2)cc1OC (stereo unspecified) | i

7 records picked at random from those above:
canonical_smiles | liver stage
CC[C@H]1CN2CC[C@@H]1C[C@@H]2[C@@H](O)c1ccnc2ccc(OC)cc12 | i
CC(C)NC(=O)c1cn(Cc2ccccc2)cc(C(=O)NCCc2nc3ccccc3[nH]2)c1=O | i
C/C=C/[C@H]1O[C@@](O)([C@H](C)C(O)C(C)[C@@H]2OC(=O)C(OC)=CC(C)=C[C@H](C)[C@H](O)[C@H](CC)[C@H](O)C(C)CC(C)=CC=C[C@H]2OC)C[C@@H](O[C@@H]2C[C@H](O)[C@@H](OC(N)=O)[C@H](C)O2)[C@@H]1C (stereo partly specified) | i
CC[C@H]1CN2CC[C@H]1C[C@@H]2[C@@H](O)c1ccnc2ccc(OC)cc12 | i
CC[C@H]1CN2CCc3cc(OC)c(OC)cc3[C@@H]2C[C@@H]1C[C@H]1NCCc2cc(O)c(OC)cc21 | i
CCOc1c(Cl)cc(CNC(C)C(O)c2ccccc2)cc1OC (stereo unspecified) | i
CC(Cc1ccccc1)NCCCCCNC(C)Cc1ccccc1 (stereo unspecified) | i

(next part)
canonical_smiles | liver stage
C=CC(C)(CCC=C(C)C)c1ccc2c3c(c[nH]c13)CC(CO)NC(=O)C(C(C)C)N2C (stereo unspecified) | i
O[C@@]1(c2cc3ccccc3s2)CN2CCC1CC2 | i
CC1CC(C)CC(C)C(O)C(C#N)=CC=CCC(C2CCCC2C(=O)O)OC(=O)CC(O)C(C)C1 (stereo unspecified) | i
COc1cc[n+](OC(=O)N2CCCCC2)c(C)c1 | i
C=C[C@H]1CN2CC[C@H]1C[C@@H]2[C@@H](OC(=O)c1ccc(OC)cc1)c1ccnc2ccccc12 | i
CCOC(=O)CC(C)(O)P(=O)(OC)OC (stereo unspecified) | i
CCOC(=O)c1c(CN2CCN(CC#N)CC2)n(Cc2ccccc2)c2cc(Br)c(O)cc12 | i
O=C(CCl)Nc1ccc(Cl)cc1 | i
C=CC1CN2CCC1CC2C(OC(=O)c1ccco1)c1ccnc2ccccc12 (stereo unspecified) | i
